DUX4 inh: blocks DUX4-driven transcriptional activation; 293T-iDUX4 ZSCAN4-Gaussia luciferase reporter, 24 h; active compounds read low; activity change, negative = inhibition, % (concentration not given with the values); 37,000 compounds, 0.8% hits; AID 1224904;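 active = -10% or lower and over 25 points stronger than a control reporter; inconclusive = -10% or lower with a smaller gap; inactive = above -10%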;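 also: 0% = median of neutral control wells and -100% = median of positive control wells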
DUX4 inh difference: also measured in DUX4 inh; calls as there; Gaussia minus Italica difference, %; measured here: selective DUX4 reporter inhibition;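 worked out from the two reporters; negative = selective loss of the DUX4 reporter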
DUX4 inh control: further read-out of DUX4 inh, marked with its call; activity change, negative = inhibition, %; measured here: Italica tet-on control reporter;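 0 = neutral control and -100 = positive control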
Numbers without * were called inactive; u = inconclusive; x = not tested or not shown. These rows are one share of the data (hit frequency here may not be typical).

SMILES	DUX4 inh	DUX4 inh difference	DUX4 inh control
Cc1ccc(S(=O)(=O)N2C[C@@H](O)COC[C@@H]3O[C@@H](CC(=O)NCc4ccc5c(c4)OCO5)CC[C@H]32)cc1	1	-4	5.4
CN(C)CCCNC(=O)C[C@@H]1CC[C@@H]2[C@H](COC[C@H](O)CN2CC2CC2)O1	6	5	0.7
C[C@@H]1CN([C@@H](C)CO)C(=O)c2ccccc2-c2ccccc2CO[C@@H]1CN(C)C(=O)[C@@H](Cc1ccccc1)N(C)C	2	3	-0.6
Cc1ccccc1S(=O)(=O)N1CC(=O)N2[C@H](C1)[C@@H](c1ccc(C#CC3CC3)cc1)[C@@H]2CO	5	6	-1.4
CC(C)CC#Cc1ccc2c(c1)O[C@H](CN(C)C(=O)c1ccccc1F)[C@H](C)CN([C@@H](C)CO)S2(=O)=O	-1	-3	2.7
COc1cccc(-c2ccc(C3[C@H]4CNC[C@@H]3N4Cc3ccc4c(c3)OCO4)cc2)c1 (stereo partly specified)	u	0	6.2
O=C(Nc1ccc(F)cc1)N1CCCCN2[C@H](CO)[C@H](c3ccc(-c4cccc(F)c4)cc3)[C@H]2C1	u	x	x
COc1ccc2c3c(n(C)c2c1)[C@H](CO)N(C(=O)Nc1ccc(F)cc1)CC31CCN(Cc2cccnc2)CC1	7	1	5.1
C[C@@H]1CN([C@H](C)CO)C(=O)c2cc(NC(=O)Cc3ccccc3)ccc2O[C@@H](C)CCCCO[C@@H]1CN(C)C(=O)NC1CCCCC1	6	6	0.2
COc1ccc2c3c(n(C)c2c1)[C@@H](CO)N(CC1CC1)CC31CN(C(=O)NC2CCCC2)C1	10	5	5.3

One compound at a time, from the list above. Screens in order: DUX4 inh, DUX4 inh difference, DUX4 inh control
`C[C@@H]1CN([C@@H](C)CO)C(=O)c2ccccc2-c2ccccc2CO[C@@H]1CN(C)C(=O)[C@@H](Cc1ccccc1)N(C)C` is listed with 2, 3, -0.6
`O=C(Nc1ccc(F)cc1)N1CCCCN2[C@H](CO)[C@H](c3ccc(-c4cccc(F)c4)cc3)[C@H]2C1` is listed with u, x, x
`COc1cccc(-c2ccc(C3[C@H]4CNC[C@@H]3N4Cc3ccc4c(c3)OCO4)cc2)c1` (stereo partly specified) is listed with u, 0, 6.2
`Cc1ccc(S(=O)(=O)N2C[C@@H](O)COC[C@@H]3O[C@@H](CC(=O)NCc4ccc5c(c4)OCO5)CC[C@H]32)cc1` is listed with 1, -4, 5.4
`C[C@@H]1CN([C@H](C)CO)C(=O)c2cc(NC(=O)Cc3ccccc3)ccc2O[C@@H](C)CCCCO[C@@H]1CN(C)C(=O)NC1CCCCC1` is listed with 6, 6, 0.2

Entries above with four or more nitrogen atoms, in the order listed:
SMILES	DUX4 inh	DUX4 inh difference	DUX4 inh control
COc1ccc2c3c(n(C)c2c1)[C@H](CO)N(C(=O)Nc1ccc(F)cc1)CC31CCN(Cc2cccnc2)CC1	7	1	5.1
C[C@@H]1CN([C@H](C)CO)C(=O)c2cc(NC(=O)Cc3ccccc3)ccc2O[C@@H](C)CCCCO[C@@H]1CN(C)C(=O)NC1CCCCC1	6	6	0.2
COc1ccc2c3c(n(C)c2c1)[C@@H](CO)N(CC1CC1)CC31CN(C(=O)NC2CCCC2)C1	10	5	5.3

Next compounds follow:
SMILES	DUX4 inh	DUX4 inh difference	DUX4 inh control
O=C(C1CCOCC1)N1CC(=O)N2[C@H](C1)[C@H](c1ccc(C#Cc3cccc(F)c3)cc1)[C@@H]2CO	u	x	x
C[C@@H]1CN([C@H](C)CO)S(=O)(=O)c2ccc(-c3ccc(C#N)cc3)cc2O[C@@H]1CN(C)Cc1cccc(F)c1	0	-5	5.4
Cc1ccc(-c2ccc([C@H]3[C@@H](CO)N4CCCCN(C(=O)Nc5ccccc5)C[C@H]34)cc2)cc1	u	x	x
C/C=C/c1ccc2c(c1)O[C@H](CN(C)S(=O)(=O)c1ccc(F)cc1)[C@H](C)CN([C@H](C)CO)S2(=O)=O	-3	-3	0.1
CNC[C@@H]1Oc2ccc(NC(=O)NC3CCCCC3)cc2CC(=O)N([C@@H](C)CO)C[C@@H]1C	-2	0	-1.2
COc1ccc(C#Cc2ccc([C@H]3[C@H](CO)N4C(=O)CN(C(=O)C5CCOCC5)C[C@@H]34)cc2)cc1	6	1	5.1
CO[C@H]1CN(C)C(=O)c2cc(NC(=O)C3CCCC3)ccc2OC[C@H](C)N(C(=O)CC2CC2)C[C@H]1C	2	4	-1.9
O=C(C[C@H]1CC[C@@H]2[C@H](COC[C@@H](O)CN2C(=O)Nc2cccc(Cl)c2)O1)NCC1CCCCC1	u	x	x
COc1ccc2c3c([nH]c2c1)[C@H](CO)N(Cc1ccccc1F)CC31CN(S(C)(=O)=O)C1	-45*	-26*	-19*
CNC(=O)C[C@H]1CC[C@@H]2[C@H](COC[C@@H](O)CN2C(=O)Nc2ccc(Cl)c(Cl)c2)O1	0	1	-1.1
CC(C)NC(=O)N1[C@H](CO)[C@@H](c2ccccc2)[C@@H]1CN(C)C(=O)c1ccncc1	2	1	1.1
COCC#Cc1ccc([C@H]2[C@@H](CO)N3CCCCN(S(=O)(=O)c4ccc(OC)cc4)C[C@@H]23)cc1	u	x	x
O=C(C[C@@H]1CC[C@@H]2[C@H](COC[C@@H](O)CN2S(=O)(=O)c2ccccc2)O1)NCc1ccc(-c2ccccc2)cc1	-7	-4	-3.7
Cc1ccccc1-c1ccc([C@H]2[C@H]3CN(S(C)(=O)=O)CC(=O)N3[C@H]2CO)cc1	7	1	6.0
CCCNC(=O)C[C@H]1CC[C@H]2[C@@H](COC[C@@H](O)CN2C(=O)Nc2ccc3c(c2)OCO3)O1	3	-7	11
O=C(N[C@H]1C=C[C@@H](CC(=O)N2CCC(Cc3ccccc3)CC2)O[C@@H]1CO)c1cnccn1	2	4	-2.3
Cc1noc(C)c1NC(=O)Nc1ccc2c(c1)CC(=O)N([C@H](C)CO)C[C@H](C)[C@@H](CN(C)C(=O)NC1CCCCC1)O2	0	-2	2.3
COc1ccc(-c2ccccc2[C@H]2[C@@H](CO)N(C(=O)NC3CCCCC3)[C@H]2C#N)cc1	u	x	x
C[C@H]1CN([C@@H](C)CO)C(=O)c2cccc(NC(=O)Nc3cccc4ccccc34)c2O[C@H]1CN(C)Cc1ccncc1	1	1	0.9
O=C(C[C@H]1C[C@@H]2c3cc(NC(=O)Nc4ccc(C(F)(F)F)cc4)ccc3O[C@@H]2[C@@H](CO)O1)NCc1ccc2c(c1)OCO2	u	x	x

3 compounds already listed, ordered by heavy-atom count, largest number first:
SMILES	DUX4 inh	DUX4 inh difference	DUX4 inh control
O=C(C[C@H]1C[C@@H]2c3cc(NC(=O)Nc4ccc(C(F)(F)F)cc4)ccc3O[C@@H]2[C@@H](CO)O1)NCc1ccc2c(c1)OCO2	u	x	x
C[C@H]1CN([C@@H](C)CO)C(=O)c2cccc(NC(=O)Nc3cccc4ccccc34)c2O[C@H]1CN(C)Cc1ccncc1	1	1	0.9
COCC#Cc1ccc([C@H]2[C@@H](CO)N3CCCCN(S(=O)(=O)c4ccc(OC)cc4)C[C@@H]23)cc1	u	x	x

New compounds follow
SMILES	DUX4 inh	DUX4 inh difference	DUX4 inh control
CO[C@H](C(=O)N(C)C[C@@H]1OCc2ccccc2-c2c(n(C)c3ccccc23)C(=O)N([C@@H](C)CO)C[C@H]1C)c1ccccc1	20	20	0.2
COC(=O)C[C@@H]1C[C@H]2c3cc(NC(=O)CC4CC4)ccc3O[C@H]2[C@H](CO)O1	7	3	4.4
O=C1N[C@@H](Cc2ccccc2)COCc2cn(nn2)CC[C@H]1Cc1ccc(Cl)cc1	-2	1	-2.1
C[C@H]1CN([C@@H](C)CO)C(=O)c2cc(-c3ccccc3)cnc2O[C@H]1CN(C)C(=O)c1ccccn1	1	-6	6.2
CC(=O)Nc1ccc2c(c1)C(=O)N(C)[C@@H]1CC[C@H](CC(=O)NC3CCCCC3)O[C@@H]1CO2	8	3	4.9
CCNC(=O)C[C@H]1CC[C@H]2[C@H](COc3ccc(NC(=O)Nc4ccccc4Cl)cc3C(=O)N2C)O1	7	0	7.3
O=C(NC1CCCCC1)N[C@H]1CC[C@@H](CC(=O)N2CCOCC2)O[C@@H]1CO	8	4	4.0
COc1ccc2c3c([nH]c2c1)[C@H](CO)N(C(=O)NC1CCCC1)CC31CN(S(C)(=O)=O)C1	12	3	9.3
COCC(=O)N(C[C@H]1N[C@H](CO)[C@@H]1c1ccc(-c2cncnc2)cc1)C(C)C	-2	-1	-1.3
COc1ccc(S(=O)(=O)N(C)C[C@H]2Oc3ccc(NC(=O)CCN4CCOCC4)cc3CC(=O)N([C@@H](C)CO)C[C@@H]2C)cc1	-1	-7	5.9
O=C(Nc1ccc2c(c1)[C@H]1C[C@@H](CC(=O)N3CCCCC3)O[C@@H](CO)[C@H]1O2)C1CCOCC1	3	2	0.7
COc1ccc(NC(=O)N2CC3(C2)CN(C(=O)C2CCC2)[C@H](CO)c2c3c3ccc(OC)cc3n2C)cc1	10	12	-2.0
CC(C)C[C@H]1COCc2cn(nn2)CC[C@@H](Cc2ccccc2)C(=O)N1	5	0	4.9
COC(=O)C[C@@H]1CC[C@H]2[C@@H](COc3ccc(NC(=O)C4CCOCC4)cc3C(=O)N2C)O1	-1	-8	7.1
O=C(CC1CC1)N1[C@H](CO)[C@@H](c2ccccc2)C12CN(Cc1ccncc1)C2	-5	-7	1.7
COc1cccc(C(=O)Nc2ccc3c(c2)C(=O)N(C)C[C@@H](OC)[C@H](C)CN(C(=O)C2CC2)[C@H](C)CO3)c1	2	3	-0.1
COc1ccccc1-c1cn(CC[C@H]2CC[C@H](NC(=O)C3CCCCC3)[C@@H](CO)O2)nn1	-5	10	-15
O=C(C[C@@H]1CC[C@@H]2[C@H](COC[C@H](O)CN2S(=O)(=O)c2ccccc2F)O1)NCc1ccccc1F	-4	2	-6.4
CO[C@H]1CN(C)C(=O)c2ccc(NC(=O)c3cnccn3)cc2OC[C@@H](C)N(C(=O)C2CC2)C[C@@H]1C	0	-3	2.8
CCCN(C)C[C@@H]1OCCCC[C@H](C)Oc2ccc(NC(=O)CCCN(C)C)cc2C(=O)N([C@H](C)CO)C[C@@H]1C	2	-1	2.7
N#C[C@@H]1[C@H](c2ccccc2C2=CCCCC2)[C@@H](CO)N1C(=O)c1cccc(F)c1	u	x	x
O=C(C[C@@H]1C[C@H]2c3cc(NC(=O)c4cccnc4)ccc3O[C@H]2[C@@H](CO)O1)NCCc1ccccc1	7	3	4.5
C[C@@H]1CN([C@@H](C)CO)C(=O)c2cc(C#CC(C)(C)O)cnc2O[C@@H]1CN(C)C(=O)C1CCOCC1	3	1	2.8
Cc1ccc(S(=O)(=O)N[C@H]2CC[C@H](CC(=O)N3CCc4ccccc4C3)O[C@H]2CO)cc1	-7	-7	-0.4
C[C@H]1CN([C@@H](C)CO)C(=O)CCCn2nncc2CO[C@H]1CN(C)S(=O)(=O)c1ccc(Cl)cc1	5	13	-7.3
COc1ccc2c3c(n(C)c2c1)[C@H](CO)N(C(=O)C1CCCCC1)CC31CCN(C(=O)Nc2cccc(F)c2)CC1	u	x	x
COc1ccccc1-c1ccc([C@H]2[C@@H](C#N)N(C(=O)C3CCOCC3)[C@H]2CO)cc1	-1	1	-2.7
C[C@H](CO)N1C[C@H](C)[C@H](CN(C)C)OCc2cnnn2CCCC1=O	-1	-2	1.0
CN(C)CC#Cc1ccc([C@H]2[C@@H](CO)N3CCCCN(C(=O)NC4CCCC4)C[C@H]23)cc1	10	-1	11
CO[C@H]1CN(C)C(=O)c2ccc(NC(=O)C3CCOCC3)cc2OC[C@H](C)N(C(=O)c2ccccc2)C[C@H]1C	-2	1	-2.5
CN1C(=O)c2cc(NC(=O)Nc3cccc(Cl)c3)ccc2OC[C@@H]2O[C@@H](CC(=O)NCCc3ccncc3)CC[C@@H]21	-1	-3	2.5
COc1ccc(S(=O)(=O)Nc2ccc3c(c2)C(=O)N([C@@H](C)CO)C[C@@H](C)[C@@H](CN(C)C(=O)c2ccncc2)OCCCC[C@@H](C)O3)cc1	2	-1	2.9
O=C(c1ccccc1)N1CC2(C1)[C@@H](c1ccccc1)[C@H](CO)N2C(=O)CC1CC1	8	3	4.3
COc1ccc(S(=O)(=O)Nc2ccc3c(c2)C(=O)N([C@H](C)CO)C[C@H](C)[C@@H](CN(C)C(=O)Nc2c(C)noc2C)OCCCC[C@@H](C)O3)cc1	-1	-2	0.5
C[C@H](CO)N1C[C@H](C)[C@H](CN(C)S(=O)(=O)c2ccccc2)OCCCC[C@H](C)Oc2ccc(NS(C)(=O)=O)cc2C1=O	1	-5	5.8
CCS(=O)(=O)N1CC2(C1)CN(S(=O)(=O)c1cccc(OC)c1)[C@@H](CO)c1[nH]c3cc(OC)ccc3c12	8	19	-11
Cc1ccc(S(=O)(=O)N(C)C[C@H]2Oc3c(NC(=O)Nc4cccc5ccccc45)cccc3C(=O)N([C@H](C)CO)C[C@H]2C)cc1	-1	1	-2.4
C[C@@H]1CN([C@H](C)CO)C(=O)CCCn2cc(nn2)CO[C@@H]1CN(C)C(=O)c1ccc2ccn(C)c2c1	-2	-11	8.4
CCCC(=O)Nc1ccc2c(c1)OC[C@@H](C)NC[C@H](C)[C@@H](OC)CN(C)C2=O	3	-2	5.6
COC(=O)[C@H]1[C@H](CO)[C@H]2Cn3c(ccc(-c4ccccc4OC)c3=O)[C@H]2N1CC1CCOCC1	15	9	6.4
CO[C@@H](CN(C)C(=O)c1cnccn1)[C@H](C)CN([C@H](C)CO)S(=O)(=O)c1ccccc1	-3	-1	-1.5
CCCC(=O)Nc1ccc2c(c1)C(=O)N(C)[C@@H]1CC[C@H](CC(=O)OC)O[C@H]1CO2	10	6	4.0
COc1ccc(C#Cc2cccc(-c3nc(C(=O)Nc4ccc(-c5ccccc5)cc4)cc4c3[C@@H](CCO)N(S(=O)C(C)(C)C)C4)c2)cc1OC (stereo partly specified)	-3	0	-2.8

Compound activity deposited in PubChem BioAssay by Broad Institute.
